From PubChem
TRPV1 potentiator – HTS Assay for Compounds that Act as Potentiators of the Vanilloid Receptor 1. 0.02% of 320,000 active. TRPV1-expressing cells, Fluo-8 calcium influx, capsaicin EC20 potentiation; host cell line not named in the record; control for the full effect not named in the record. Transient receptor potential cation channel subfamily V member 1 (Homo sapiens), Q8NER1. potentiation, % at 8.33 µM; active means potentiation above 80%; inconclusive means 30% to 80%; inactive means below 30%; also: 0% is about no effect
Target sequence (Q8NER1 whole entry, looked up): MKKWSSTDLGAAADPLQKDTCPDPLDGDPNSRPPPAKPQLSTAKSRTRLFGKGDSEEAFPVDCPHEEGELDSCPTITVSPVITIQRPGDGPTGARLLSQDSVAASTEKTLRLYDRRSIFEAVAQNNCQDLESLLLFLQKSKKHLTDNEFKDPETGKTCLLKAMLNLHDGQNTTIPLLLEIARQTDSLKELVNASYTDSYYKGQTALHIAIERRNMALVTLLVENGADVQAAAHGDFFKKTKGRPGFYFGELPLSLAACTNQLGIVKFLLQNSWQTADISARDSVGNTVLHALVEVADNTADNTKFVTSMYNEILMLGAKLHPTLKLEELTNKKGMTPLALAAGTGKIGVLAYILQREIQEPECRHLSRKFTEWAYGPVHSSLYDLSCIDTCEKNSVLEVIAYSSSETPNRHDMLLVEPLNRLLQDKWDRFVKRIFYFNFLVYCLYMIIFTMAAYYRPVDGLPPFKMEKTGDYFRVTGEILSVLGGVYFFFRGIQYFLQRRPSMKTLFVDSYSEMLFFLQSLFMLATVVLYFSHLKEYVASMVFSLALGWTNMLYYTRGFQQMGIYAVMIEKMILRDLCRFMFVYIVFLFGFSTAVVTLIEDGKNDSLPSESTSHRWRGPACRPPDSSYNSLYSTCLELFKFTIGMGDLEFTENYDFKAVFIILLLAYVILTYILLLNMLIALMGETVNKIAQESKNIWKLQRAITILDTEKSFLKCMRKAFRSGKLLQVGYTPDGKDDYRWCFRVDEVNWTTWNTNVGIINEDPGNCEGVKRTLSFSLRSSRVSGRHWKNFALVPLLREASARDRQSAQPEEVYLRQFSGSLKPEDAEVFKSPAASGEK
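TRPV1-expressing cells were cultured overnight at 35.5C and loaded with Fluo-8 calcium dye for 40 to 90 min at room temperature. After a 10 s baseline, compound was added and calcium influx was read kinetically for 3 min (ex 480/em 520 nm).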
gsp antagonist – qHTS for Antagonists of gsp, the Etiologic Mutation Responsible for Fibrous Dysplasia/McCune-Albright Syndrome: qHTS; gsp-mutant cells, cAMP HTRF, 30 min; control for the full effect not named in the record; Potency, µM (series often up to 76.9 µM), for inactives: top-dose activity change, negative = inhibition, actives largely listed as inhibitors; 0.4% of 340,000 active; AID 624288, 2012; active = falling curve of any shape with a large fitted effect; inconclusive = falling curve, mostly with a smaller effect; inactive = flat or rising curve; cell line not stated here;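 also: intracellular cAMP measured with PDE inhibitor Ro 20-1724 present during compound exposure; potency is read from the fitted curve at half-maximal effect; % is scaled to controls: 0 for no effect and ±100 for the full control effect; nearly all actives have a fitted effect of over 65% in size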
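HTRF cAMP measurement after 30 min RT detection following 30 min, 37C compound treatment alongside […] (added as 300 uM solution) in G418-selected cells seeded at 2000/well and grown 16–24 h.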
ClpP mod – qHTS Assay for Activators of ClpP; Potency, µM (doses to about 57.5 µM), for inactives: top-dose activity change, negative = active; purified B. subtilis ClpP, FRET peptide cleavage, 20 min; 1.9% of 340,000 active; active = well fitted falling curve with a large enough effect; inconclusive = small, poorly fitted or top-dose-only effect; inactive = no such curve, though single readings can be large or run the other way; also: potency is read from the fitted curve at half-maximal effect; the source files actives as falling curves though it sought activators and does not explain the sign; nearly all actives have a fitted effect of over 65% in size; many hits overshoot -100%
Target sequence (P80244 whole entry, looked up): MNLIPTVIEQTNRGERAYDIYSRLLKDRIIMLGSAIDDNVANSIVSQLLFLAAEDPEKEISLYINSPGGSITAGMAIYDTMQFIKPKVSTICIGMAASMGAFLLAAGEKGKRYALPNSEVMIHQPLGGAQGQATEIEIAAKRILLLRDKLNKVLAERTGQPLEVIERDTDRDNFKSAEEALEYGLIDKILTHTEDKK
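Buffer: 100 mM Tris/HCl pH8, 100 mM KCl, 0.05% low protease BSA, 2.5% glycerol, 0.01% Tween-20. ClpP 10 microg/mL final; 20 min RT; delta FRET normalized to ADEP and DMSO controls.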
gsp ag – qHTS for Agonist of gsp, the Etiologic Mutation Responsible for Fibrous Dysplasia/McCune-Albright Syndrome: qHTS; gsp mutant cells, cAMP HTRF, 30 min; control for the full effect not named in the record; Potency, µM (highest dose often 76.9 µM), inactives show at the highest dose activation (cAMP increase), actives largely listed as activators; 0.13% of 340,000 active; AID 624287, 2012; active = well fitted activation curve with a large enough effect; inconclusive = small, poorly fitted or top-dose-only effect, or another doubt; inactive = no such curve, though single readings can be large or run the other way; cell line not stated here;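 also: phosphodiesterase inhibitor Ro 20-1724 added with compounds to block cAMP breakdown; potency is read from the fitted curve at half-maximal effect; nearly all actives have a fitted effect of over 60% in size; about a fifth of the inactives were tested at one dose only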
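Cells in DMEM/10% FBS with G418 were pretreated with compounds in DMSO plus […] (300 uM stock) for 30 min at 37C. cAMP was measured by HTRF (cAMP-d2 plus anti-cAMP antibody-K) after 30 min at room temperature.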
TRPML1 inh – qHTS for Inhibitors of the Human Mucolipin Transient Receptor Potential 1 (TRPML1) | Mucolipin-1 (Homo sapiens), Q9GZU1 | TRPML1-inducible cells, Ca2+ dye fluorescence, FDSS; active compounds read low; inhibition of EC80 agonist-evoked calcium signal | activity change, negative = inhibition, % (test concentration not listed) | 0.02% of 390,000 active | AID 624415, 2012; in the data active means activity change below about -50%; inconclusive means about -30% to -50%; inactive means above about -30%;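 also: stimulus is agonist 54-4 at its EC80 concentration; % is scaled to controls: 0 for no effect and ±100 for the full control effect; compound concentration not given in the record; the text of the record puts the active cut at -80%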
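Calcium fluorescence in TRPML1-DL cells induced overnight with Tet: a 110 s read after compound pin addition, then a 110 s antagonist read after challenge with 54-4 at 4 uM final (EC80).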
Menin-MLL FL inh – qHTS Assay for Inhibitors Targeting the Menin-MLL Interaction in MLL Related Leukemias: Competition With Fluorescein Labeled MLL-derived Peptide; Fluorescence polarization, fluorescein-MLL peptide displacement from menin; FP activity change, % at 61.4 µM; 290,000 tested, under 10 active; inconclusive = falling polarisation curve, or a change in total fluorescence; inactive = total fluorescence flat and polarisation flat or rising; no compound was filed as active; the % refers to the polarisation; negative = inhibition;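 also: % of control where 0% means no effect; inhibitors lower the polarisation; unlabelled MLL peptide was the positive control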
Sfp PPTase inh – qHTS Assay for Inhibitors of Bacillus subtilis Sfp phosphopantetheinyl transferase (PPTase). 4'-phosphopantetheinyl transferase ffp (Bacillus subtilis), Q9F4F7. Biochemical Sfp PPTase activity, qHTS. Potency, µM, for inactives: max response, negative = inhibition, usual class: inhibitors. 3.5% of 310,000 active; active = well fitted inhibition curve with a large enough effect; inconclusive = small, poorly fitted or top-dose-only effect, or another doubt; inactive = no such curve, though single readings can be large or run the other way;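 also: the enzyme is Sfp with the accession as filed and its product quenches rhodamine fluorescence; potency is read from the fitted curve at half-maximal effect; 0% = enzyme reaction without inhibitor and -100% = no enzyme wells; top concentration of the series not given in the record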
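Sfp 15 nM + cpd, 15 min RT; start w/ rhodamine-CoA 5 uM, BHQ-2-YbbR 12.5 uM (final); 50 mM Hepes pH 7.6, 10 mM MgCl2, 0.01% NP-40, 0.01% BSA; read 525/598 nm at 0 and 30 min.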
Active calls of the source: *; u = inconclusive; x = no result given; & = joins results of further samples; [ ] = remark or other dose. Rows are unselected. Share with any hit: about 4.9%.

SMILES	TRPV1 potentiator	gsp antagonist	ClpP mod	gsp ag	TRPML1 inh	Menin-MLL FL inh	Sfp PPTase inh
CCOC(=O)c1c(NC(=O)CN2C(=O)NC3(CCCC3)C2=O)sc(C)c1CC	-14	-10%	-6.5%	-58%[inhibitor]	12	x	x
CS(=O)(=O)NC1c2cccc3cccc(c23)C1N1CCOCC1 (configuration not stated)	-16	1%	-0.9%	-14%	9	-27	6%
CCCn1c(NC(=O)c2ccc(Br)cc2)nc2ccccc21	15	4%	u	u	-3	-1.1	10%
O=[N+]([O-])c1ccc2nc(SCc3cn4cccnc4n3)[nH]c2c1	5	15%	-5.9%	u	18	-1.0	-21%
Cc1ccc(C(=O)NCCCNC(=O)COc2ccccc2Cl)cn1	-2	-14%	x	3%[15.4 µM]	11	x	11%
Cc1cc(C(=O)Nc2ccc(N3CCOCC3)c(Cl)c2)c(C)o1	-18	-14%	1.2%	-36%[inhibitor]	-8	-0.6	6%
CC(NC(=O)CN(C)S(=O)(=O)c1ccc2c(c1)c(=O)n(C)c(=O)n2C)c1ccccc1 (configuration not stated)	23	1%	-25%&-10%	1%	-9&35	x	3%
CC1(C)CC2CC(C)(CN2C(=O)c2ccc([N+](=O)[O-])cc2)C1 (configuration not stated)	-7	-4%	2.2%	-42%[inhibitor]	1	0.0	5%
CCN(C(=O)COC(=O)c1nn(-c2ccccc2)c(=O)c2ccccc12)C1CCS(=O)(=O)C1 (configuration not stated)	29	-19%	x	-4%[15.4 µM]	-7	0.1	23%
COc1ccc(OC)c(NC(=O)COC(=O)CCC2CCCC2)c1	17	4%	1.2%	3%	-3	x	x
Cn1cc([N+](=O)[O-])c(C(=O)Nc2ccc(-c3nc4ccccc4[nH]3)cc2)n1	u	5%	0.6%	-7%[15.4 µM]	33	7.2	8%
CCCCNC(=O)CCn1ccc2cc(S(=O)(=O)N3CCCC3)ccc21	15	-2%	-0.8%	16%	7	x	5%
Cc1ccc(Cl)cc1N1CCN(C(CC(C)C)c2nnnn2CC2CCCO2)CC1 (configuration not stated)	7	2%	-1.2%	1%	21	2.6	10%
Cc1ccc(S(=O)(=O)Cn2nnnc2CN(Cc2ccco2)Cc2cccs2)cc1	-4	-23%	-0.5%	-17%	12	3.9	14%
CNC(=O)CS(=O)CC(=O)Nc1cc(OC(C)C)c(Cl)cc1Cl (configuration not stated)	2	3%	x	-56%[inhibitor]	-1	2.8	5%
CSc1nsc(SCC(=O)Nc2ccccc2)n1	-28	0%	x	10%	3	-11	-4%
Cc1cccc(C)c1OCC(=O)Nc1cccc(NC(=O)c2ccco2)c1	18	-5%	0.2%	4%	-16	-1.0	-1%
Cc1cc(NC(=O)C(C)C)ncc1NC(=O)c1ccco1	0	x	x	x	x	-2.4	27%
O=C(CCc1nc2cccnc2n1Cc1ccccc1)N1CCOCC1	17	12%	-1.2%	16%	9	-0.6	-3%
O=C(COc1ccccc1Cl)Nc1ccc2c(c1)OCO2	-12	-4%	x	u	-19	2.5	30%
COc1ccc2c(c1)C(=O)N(c1ccccc1OC)C(=O)C2(C)C	u	-13%	-3.6%	u	-5	-1.5	-3%
O=C(NNC(=O)c1cccc2ccccc12)c1ccc(Cl)cc1	x	-2%	x	15%	-11	x	x
O=C(CNC(=O)c1ccc(Cl)cc1)OC1CCOC1=O (configuration not stated)	-4	0%	x	14%[15.4 µM]	4	0.5	22%
O=C(O)c1ccc(NC(=S)NC(=O)c2cncc(Br)c2)cc1	4	-9%	1.2%	-36%[inhibitor]	4	3.5	-25%
CCCN(CCC)c1nc2ccccc2nc1C(C#N)C(=O)OC(C)COC (configuration not stated)	9	-8%	-5.6%	-3%	37	2.5	1%
Oc1ccccc1/C=N/Nc1nc2ccccc2o1	-1	u	x	-19%[15.4 µM]	5	0.2	11%
Cc1ccc(CNC(=O)CCc2c(C)nc3c(c(C)nn3-c3ccc(C)cc3)c2C)cc1	2	9%	u	u	1	-5.6	18%
CCc1ccccc1NC(=O)CCN1C(=O)c2ccccc2C1=O	-4	6%	-1.7%	20%	-8	0.9	2%
COc1cccc(-n2c(-c3ccc4[nH]c(C)c(C)c4c3)n[nH]c2=S)c1	15	-18%	x	u	-15	-5.1	u
CCN(CC)CCCNc1nc(N)c([N+](=O)[O-])c(NCCO)n1	-9	2%	1.4%	1%	5	-1.3	13%
N/C(=N\OC(=O)CCCOc1ccccc1)c1ccccn1	3	4%	x	u	-6	-0.8	16%
CC(=O)c1sc(N)nc1C	-42	5%	-2.5%&-0.3%	u	0&-2	x	x
O=C(O)C1C2C=CC(C2)C1C(=O)OCc1ccccc1 (configuration not stated)	-8	3%	17%	23%	-4	-1.4	20%
COc1ccccc1CNC(c1ccccc1)c1ccccc1	-6	-6%	-1.6%	-39%[inhibitor]	0	0.6	-7%
O=C(N1CCOCC1)C12CC3CC(C1)CC(n1cnc(Cl)n1)(C3)C2	-9	10%	-3.8%	-6%[15.4 µM]	35	-4.6	1%
COc1ccc(Br)cc1-c1nc2c(c(=O)[nH]c(=O)n2Cc2ccccc2)n1C	u	5%	x	u	6	-1.1	15%
O=c1[nH]cnc(O)c1N=Nc1ccccc1	0	-3%	x	-4%	-2	-7.2	5%
O=C(N/N=C/c1cc([N+](=O)[O-])cc(Br)c1O)C12CC3CCC(CC(C3)C1)C2	-13	-5%	-0.2%	-2%	-12	15	17%
Cc1cc(NC(=O)CSc2cn(CCNC(=O)c3ccccc3)c3ccccc23)no1	24	-18%	0.2%	17%	-7	-2.0	5%
CN(C)C(=O)CSc1nnc(C23CC4CC(CC(C4)C2)C3)o1	6	-1%	0.8%	-14%	-14	3.8	23%
CCN1C(=O)c2ccccc2S(=O)(=O)c2ccc(C(=O)NCCCN(CC(C)C)CC(C)C)cc21	23	8%	0.1%	-8%[15.4 µM]	-5	x	2%
COc1ccc(C(C)=O)cc1CSCc1cc(C(C)=O)ccc1OC	11	u	-1.2%	4%[15.4 µM]	-8	7.5	7%
CN(Cc1ccc2c(c1)OCCO2)C(=O)CN1C(=O)NC2(CCCCC2)C1=O	-4	4%	1.5%	2%	10	x	-1%
Cc1nn(-c2ccccc2)c(Cl)c1/C=N/NC(=O)C1COc2ccccc2O1 (configuration not stated)	-17	x	x	x	x	4.3	-3%
CCN(C[C@H]1N[C@@](Cc2ccccc2)(C(=O)OC)[C@H]2C(=O)N(Cc3ccccc3)C(=O)[C@@H]12)C(=O)c1ccc(C)cc1	x	-13%	1.7%	x	16	x	x
Cc1cccc(-n2c3nc(=O)[nH]c(=O)c-3cc3cc([N+](=O)[O-])ccc32)c1	-9	13%	-10%	u	4	1.8	-18%
Cc1ccc(S(=O)(=O)N2CCN(C(=O)COc3ccc(C)nc3[N+](=O)[O-])CC2)c(C)c1	2	x	x	16%[15.4 µM]	36	1.8	14%
CC1(C)CC(=O)c2cc(OCC(=O)N3CCOCC3)ccc2O1	-18	10%	28µM*	16%	-5	2.3	11%
O=C(COC(=O)CCN1C(=O)/C(=C\C=C\c2ccccc2)SC1=S)Nc1cc(F)ccc1F	1	u	x	13%[15.4 µM]	-4	17	-24%
COc1ccccc1C(=O)COC(=O)c1cc(=O)[nH]c2ccccc12	12	3%	x	3%[15.4 µM]	17	x	x
COc1ccc(Nc2nc(-c3cccnc3)cs2)c(OC)c1	5	-18%	0.7%	-27%[15.4 µM]	-2	-4.1	-17%
COc1ccc(C(=O)Nc2nnc(S(=O)(=O)N(C)Cc3ccc(F)cc3)s2)cc1OC	1	-23%	x	21%	-9	0.0	7%
COc1ccc(-n2c(SCC(N)=O)nc3nc4c(cc3c2=O)COC(C)(C)C4)cc1	u	-21%	-7.0%	u	3	6.8	8%
COc1ccc(NC(=O)CN2CCN(C3c4ccccc4-c4ccccc43)CC2)c(OC)c1	-4	-4%	-4.8%	u	45	0.5	u
Cc1ccc(-c2nc(NCc3ccc(F)cc3)n(S(C)(=O)=O)n2)cc1	-6	-9%	x	-1%[15.4 µM]	16	3.8	12%
O=C1CCC(C(=O)OCC(=O)c2c[nH]c3ccccc23)=NN1	-4	27%	1.2%	18%	-16	6.2	6%
CN(C)S(=O)(=O)c1ccc(S(=O)(=O)NCc2ccc3c(c2)OCO3)cc1	-14	6%	-1.1%	-19%[15.4 µM]	8	2.0	22%
CCOc1ccc(S(=O)(=O)n2nnc3ccccc32)cc1C(C)C	-7	x	x	x	x	0.5	-2%
CC(=O)Nc1cccc(NC(=O)CSc2ncc(-c3ccccc3)[nH]2)c1	17	1%	-1.9%	-77%[inhibitor]	10	-0.3	20%
O=C(c1ccc(C(F)(F)F)cc1)N1CCC(=O)N([C@H](COCc2ccc(C(F)(F)F)cc2)Cc2ccccc2)CC1	x	x	4.5%	x	x	3.3[44.5 µM]	16%

Further results.
SMILES	TRPV1 potentiator	gsp antagonist	ClpP mod	gsp ag	TRPML1 inh	Menin-MLL FL inh	Sfp PPTase inh
CC1CCN(c2nc3ccccc3nc2N2CCC(C)CC2)CC1	10	x	x	x	x	1.4	7%
COc1cc(/C=N/n2cnnc2)ccc1OC(=O)c1ccncc1	-4	0%	16%	5%	-6	0.5	22%
COc1cc(C2Sc3ccccc3NC3=C2C(=O)OC3)cc(OC)c1OC (configuration not stated)	8	-17%	-6.5%	5%	-1	-1.8	11%
Cc1ccc(S(=O)(=O)N2CCCC(C(=O)NCc3ccc4c(c3)OCO4)C2)cc1 (configuration not stated)	-1	0%	x	-14%[15.4 µM]	30	x	12%
CCOC(=O)Nc1oc2ccccc2c(=O)c1C	-1	0%	5µM*	1%	-2	0.9	4%
